# GLA inh pH 4.5: qHTS Assay for Inhibitors of Human alpha-Galactosidase at pH 4.5; Alpha-galactosidase A (Homo sapiens), P06280; purified enzyme, 4-MU-alpha-Gal fluorescence, pH 4.5; activity change, negative = inhibition, % at 105 µM; 230,000 tested, under 10 active; AID 1467, 2008; inconclusive = small, poorly fitted or top-dose-only inhibition, or a rising curve; inactive = flat fitted curve, though single readings scatter; no compound was filed as active;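 note: 0% = full activity with enzyme and -100% = basal without enzyme; dose as in the result columns while the protocol names 77 µM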
# Rango complex inh: qHTS Assay for Inhibitors of Rango (Ran-regulated importin-beta cargo) - Importin beta complex formation; Importin subunit beta-1 (Homo sapiens), Q14974; Rango CFP/YFP FRET sensor + importin beta, 45 min; Potency, µM (series often up to 92.2 µM), inactives show at the top dose inhibition of complex formation; actives 0.031% (n = 340,000); active = rising FRET ratio curve, often small or poorly fitted; inconclusive = mostly compound fluorescence or quenching in the first reads; inactive = flat curves in all reads;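 note: potency is the fitted concentration of half-maximal effect; 0% = DMSO wells and 100% = buffer wells lacking importin beta; nearly all actives have a fitted effect of over 15% in size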
# Target sequence (Q14974 whole entry, looked up): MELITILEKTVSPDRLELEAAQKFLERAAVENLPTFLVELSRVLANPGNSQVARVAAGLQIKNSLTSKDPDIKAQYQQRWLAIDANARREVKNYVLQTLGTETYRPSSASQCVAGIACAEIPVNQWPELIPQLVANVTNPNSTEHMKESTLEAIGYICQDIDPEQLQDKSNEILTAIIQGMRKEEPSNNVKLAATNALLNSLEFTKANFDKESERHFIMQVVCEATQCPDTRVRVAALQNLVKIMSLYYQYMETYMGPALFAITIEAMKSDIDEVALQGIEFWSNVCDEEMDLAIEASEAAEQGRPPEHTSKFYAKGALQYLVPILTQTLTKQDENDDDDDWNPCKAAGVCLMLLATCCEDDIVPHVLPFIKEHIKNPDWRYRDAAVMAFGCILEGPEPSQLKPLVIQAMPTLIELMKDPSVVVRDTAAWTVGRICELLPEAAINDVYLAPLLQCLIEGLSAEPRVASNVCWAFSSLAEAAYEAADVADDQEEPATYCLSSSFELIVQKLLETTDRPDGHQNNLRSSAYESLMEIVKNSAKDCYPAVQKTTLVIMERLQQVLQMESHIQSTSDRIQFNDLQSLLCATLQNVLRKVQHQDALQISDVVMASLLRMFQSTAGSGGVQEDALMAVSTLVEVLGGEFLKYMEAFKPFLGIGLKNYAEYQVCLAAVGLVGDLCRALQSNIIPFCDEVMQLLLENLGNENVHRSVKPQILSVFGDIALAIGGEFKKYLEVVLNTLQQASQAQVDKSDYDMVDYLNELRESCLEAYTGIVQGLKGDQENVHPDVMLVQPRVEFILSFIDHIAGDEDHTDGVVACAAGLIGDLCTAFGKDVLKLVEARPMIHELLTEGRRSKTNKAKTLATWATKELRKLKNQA
#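 FRET biosensor (snurportin 1 IBB flanked by EYFP and cerulean), 50 nM, with compound 5 min, then 0.125 microM importin beta in PBS, 1 mM DTT, 0.02% Tween-20, 0.1% BSA. CFP/YFP ratio read after 45 min at room temperature; pre-read flags interference.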
# Rango release inh: qHTS Assay for Inhibitors of RanGTP induced Rango (Ran-regulated importin-beta cargo) - Importin beta complex dissociation. Biochemical FRET Rango-importin beta, RanGTP-induced dissociation. Potency, µM (top dose mostly 46.1 µM), inactives show at the highest dose activity change, negative = inhibition. actives 0.071% (n = 340,000); active means falling FRET ratio curve, often poorly fitted, with flat reads before Ran was added; inconclusive means other falling curves, or compound fluorescence or quenching; inactive means flat or rising ratio curve;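 note: potency is the fitted concentration of half-maximal effect; % of control where 0% means no effect; nearly all actives have a fitted effect of over 45% in size; -100% = wells without RanGTP and RCC1; the record marks most hits as doubtful in a second field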
#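 Rango FRET biosensor (snurportin-1 IBB flanked by N-terminal EYFP and C-terminal CFP10) at 0.1 uM, with 0.25 uM importin beta in PBS, 1mM DTT, 0.02% Tween-20, 0.1% BSA. 0.6 uM Ran, 2mM GTP and 0.2 uM RCC1 were then added for 45 min at room temperature. Inhibition read as loss of FRET rise.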
# miR-21 reporter: qHTS Assay for Modulators of miRNAs and/orActivators of miR-21. HeLa miR-21 FLuc reporter, luciferase, 48 h. Potency, µM (series often up to 38.3 µM), inactives show top-dose reporter change, positive = more light. 340,000 tested, under 10 active. AID 2288, 2010; active = well fitted rising curve with a large enough effect; inconclusive = small, poorly fitted or top-dose-only effect; inactive = no such curve, though single readings can be large or run the other way;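 note: % of control where 0% means no effect; miR-21 action dims this reporter so a rising signal means less miR-21 action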
#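 HeLa cells endogenously expressing miR-21, stably carrying CMV-driven firefly luciferase with a downstream miR-21 binding site, 2000 cells/well. Titrations up to approximately 40 uM, 48 hours; luciferase luminescence read.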
# Starred values were filed as active, the others as inactive; u = inconclusive; x = not tested or not shown. Only part of the results is shown; rates above refer to the full screens.
GLA inh pH 4.5 | SMILES | Rango complex inh | Rango release inh | miR-21 reporter
x | COc1ccc(CN(C)C(=O)c2ccc(NS(=O)(=O)c3ccc4[nH]c(=O)[nH]c4c3)cc2)c(OC)c1OC | 2.9% | -10.6% | x
-4.2 | CCCOc1ccc(/C(O)=C2/C(=O)C(=O)N(CCCn3ccnc3)C2c2ccco2)cc1 (configuration not stated) | 4.2% | -8.0% | -10.8%
-8.7 | Cc1noc(NS(=O)(=O)c2ccc(NC(=O)C34CC5CC(C3)CC(n3cnc(Br)n3)(C5)C4)cc2)c1C | -4.1% | -3.4% | 0.2%
x | Cc1ccc(C)c(N/C=C(\C#N)c2nc3ccccc3o2)c1 | -0.1% | 0.9% | x
-4.7 | Cn1c(SCC(=O)N2CCN(Cc3ccccc3)CC2)nnc1-c1ccncc1 | -3.6% | 1.6% | 1.9%
x | CN1CCN(CCCCOc2cccc3ccccc23)CC1 | u | u | -27.7%
4.0 | Cc1nn(C)cc1/C=N/NC(=O)c1sc2ccccc2c1Cl | 5.0% | 6.1% | 4.1%
-8.8 | CC12CC(NC(=O)N1c1cccc(C(=O)NCc3ccc4c(c3)OCO4)c1)c1cc(Cl)ccc1O2 (configuration not stated) | -1.4% | -3.4% | 23.5%
3.2 | Cc1ccc2nc(C)c(C(=O)NN=C3CCN(C)CC3)n2c1 | -3.9% | 9.6% | 16.1%
9.1 | COc1cc(-c2noc(CCCC(=O)NC3CCCCC3)n2)cc(OC)c1OC | 1.0% | 3.9% | 0.5%
7.4 | CCC1=[N+](CC(=O)c2ccc(C)cc2)CCn2cccc21 | u | -8.2% | -38.9%
-2.3 | CCOC(=O)c1ccc(Nc2nnc(C)c3ccccc23)cc1 | 3.6% | 3.1% | -39.6%
1.9 | COc1ccc(S(=O)(=O)N2CCC3(CC2)OCCO3)cc1 | 3.6% | -0.6% | -2.6%
3.6 | C=CCNC(=O)CN1C2CCCC1CC(NC(=O)c1ccccc1C)C2 (configuration not stated) | -3.4% | 0.2% | -7.7%
-1.9 | O=C(O)c1cc(-c2ccc(Cl)cc2)n(-c2ccc(Cl)cc2)n1 | 3.7% | 19.6% | -15.4%
11.1 | CC(=O)c1ccc(NC(=O)c2cc(CC(C)C)on2)cc1 | -3.8% | 14.4% | -17.7%
x | CCS(=O)(=O)c1nc(S(=O)(=O)c2ccc(C)cc2)c(N2CCCC(C)C2)s1 (configuration not stated) | 0.3% | -5.2% | 0.0%
4.5 | Cn1ccnc1SCC(=O)Nc1ccc2c(c1)OCO2 | -2.0% | 13.2% | -46.2%
7.2 | CC(=O)c1cccc(NS(=O)(=O)c2c(C)noc2C)c1 | 0.1% | 8.8% | -3.2%
0.1 | COc1ccc(S(=O)(=O)N2CCOCC2)cc1C(C)C | 1.4% | 8.0% | -13.4%
5.7 | Cc1cccc(-n2ncc3c(NCc4ccccc4)ncnc32)c1 | -5.5% | -13.9% | -13.0%
x | Oc1ccc(/C=N/n2c(C3CCCCC3)n[nH]c2=S)c(O)c1 | -3.9% | 13.1% | -8.7%
-8.0 | CCN(CC)S(=O)(=O)c1ccc(N/N=C/c2cccnc2)nc1 | 3.0% | 14.2% | 6.7%
-4.0 | CC1CCCCN1C(=O)CNCC1CCCO1 (configuration not stated) | -2.7% | 7.1% | 0.7%
1.1 | CCn1cnc2sc(C(=O)Nc3ccc4c(c3)OCO4)c(C)c2c1=O | -2.7% | -1.9% | -66.4%
x | O=C(Nc1ccncc1)c1ccc(Cl)c([N+](=O)[O-])c1 | 2.0% | 0.2% | 13.9%
-7.7 | COc1ccc(NC(=O)CS(=O)CC(=O)NC2CCCc3ccccc32)cc1 (configuration not stated) | 3.6% | 0.6% | -0.9%
x | COc1ccc(NC(=O)c2nnn(CC(=O)Nc3ccc4c(c3)OCO4)c2N)cc1OC | -5.8% | -5.5% | -10.3%
0.4 | COc1ccc(NC(=O)NC23CC4(C)CC(C)(CC(C)(C4)C2)C3)cc1OC | 5.3% | -10.8% | -7.6%
x | O=C(N/N=C/c1cc2c(c([N+](=O)[O-])c1)OCO2)c1ccncc1 | 2.6% | 16.9% | 0.0%

# The final five compounds of the section before come first, to join the parts:
GLA inh pH 4.5 | SMILES | Rango complex inh | Rango release inh | miR-21 reporter
x | O=C(Nc1ccncc1)c1ccc(Cl)c([N+](=O)[O-])c1 | 2.0% | 0.2% | 13.9%
-7.7 | COc1ccc(NC(=O)CS(=O)CC(=O)NC2CCCc3ccccc32)cc1 (configuration not stated) | 3.6% | 0.6% | -0.9%
x | COc1ccc(NC(=O)c2nnn(CC(=O)Nc3ccc4c(c3)OCO4)c2N)cc1OC | -5.8% | -5.5% | -10.3%
0.4 | COc1ccc(NC(=O)NC23CC4(C)CC(C)(CC(C)(C4)C2)C3)cc1OC | 5.3% | -10.8% | -7.6%
x | O=C(N/N=C/c1cc2c(c([N+](=O)[O-])c1)OCO2)c1ccncc1 | 2.6% | 16.9% | 0.0%
6.1 | O=C(Nc1nccs1)Oc1ccccc1 | -1.2% | 1.5% | -1.2%
4.0 | COc1cc(S(=O)(=O)N2CCN(c3ccc(F)cc3)CC2)ccc1Cl | -1.2% | 2.5% | -8.4%
-13.8 | Nn1cnnc1SCC(=O)N(C1CCCCC1)C1CCCCC1 | 3.5% | -3.3% | -2.6%
-28.5 | CC(NC(=O)C1CCCC1)C1CC2CCC1C2 (configuration not stated) | -0.1% | -11.6% | -0.9%
-10.9 | CC(C)Sc1nnc(NC(=O)CCc2ccccc2)s1 | -0.3% | 13.9% | -22.9%
x | O=C(CNC(=O)c1ccc(F)cc1)NCc1ccc(S(=O)(=O)N2CCOCC2)cc1 | 1.0% | -19.0% | x
1.1 | COCc1cc(C)nc(SCC(=O)Nc2cccc3cccnc23)c1C#N | -6.2% | 20.6% | -15.5%
-3.1 | COc1ccc(Cl)cc1NC(=S)NCCc1c[nH]c2ccccc12 | -1.5% | 4.0% | 9.9%
5.2 | CCOC(=O)CN1C(=O)C(O)=C(C(C)=O)C1c1ccccc1 (configuration not stated) | 2.1% | -9.5% | -4.7%
x | Cc1ccnc2nc(C(=O)OCC(=O)N3CC(C)CC(C)C3)nn12 (configuration not stated) | -2.8% | 1.0% | x
1.1 | CCN(C(=O)c1cc(Cl)ccc1OC)C1CCCCC1 | -2.8% | -8.3% | 2.5%
x | Cc1cc(C)c2c(c1)c1nnc(SCCN3CCCCC3)nc1n2C | 0.6% | 0.7% | -4.9%
7.0 | CC(C)(C)OCC(NC(=O)C(CC(N)=O)NC(=O)OC(C)(C)C)C(=O)OC(C)(C)C (configuration not stated) | 9.5% | 13.2% | 12.9%
x | O=C(COc1coc(CN2CCN(c3ccccc3)CC2)cc1=O)NC1CCCC1 | -0.9% | -4.3% | x
x | Cc1cc(C)c(NC(=O)CSc2nc(=O)n(CCN3CCOCC3)c3c2CCC3)c(C)c1 | 0.9% | 1.5% | x
0.2 | CCc1[nH]nc2c1C(c1ccc(C)o1)C(C#N)=C(N)O2 (configuration not stated) | -2.6% | 6.2% | 0.3%
-11.0 | CCOc1ccc(NC(=O)Nc2ccccc2SC)cc1 | -5.2% | 1.0% | -52.7%
3.5 | CC(=O)C1=C(C)Nc2ncnn2C1c1cccc(OCc2ccccc2)c1 (configuration not stated) | -4.4% | 18.7% | 0.3%
x | Cc1cc(C(=O)OCC(=O)NC2CC2)ccc1[N+](=O)[O-] | -1.6% | -9.5% | x
x | COc1cc(OC)c(C=NNC(=S)NC23CC4CC(CC(C4)C2)C3)c(OC)c1 | 2.8% | 18.3% | x
-8.8 | Cn1c(COc2ccccc2)nnc1SCc1nc2ccccc2[nH]1 | -1.7% | 0.2% | -3.8%
x | COc1cc(C(=O)N2CCN(c3cccc(C(F)(F)F)c3)CC2)ccc1OCC(=O)N1CCOCC1 | 2.4% | -0.7% | x
-3.0 | CCc1cc(=O)oc2cc(OCC(=O)OC)c(Cl)cc12 | -0.8% | 0.1% | -8.7%
x | Cc1csc(NC(C)c2nc3cc(Cl)c(Cl)cc3n2CCCO)n1 (configuration not stated) | u | -0.6% | x
-8.4 | CCNC(=S)NNC(=O)c1ccncc1 | 1.1% | 37.4% | 2.1%
x | Cc1cccc(C)c1NC(=O)CN(C)C(=O)c1cccc(S(=O)(=O)N2CCN(C)CC2)c1 | 4.0% | -7.3% | x
-0.9 | O=C1S/C(=C/c2ccccc2F)C(=O)N1CCN=C1NS(=O)(=O)c2ccccc21 | 1.5% | 10.4% | -5.0%
-6.0 | O=C(c1ccc(-c2cccc(Cl)c2)o1)N1CCN(c2ccc([N+](=O)[O-])cc2)CC1 | 0.0% | -4.1% | -2.3%
x | Cc1cccc(-n2c(C)c(-c3ccccc3)[nH]c2=S)c1 | -1.1% | 17.8% | 5.9%
-7.6 | Fc1ccccc1Cc1noc(CN2CCN(C/C=C/c3ccccc3)CC2)n1 | -2.0% | 12.4% | -0.1%

# The listing continues:
GLA inh pH 4.5 | SMILES | Rango complex inh | Rango release inh | miR-21 reporter
x | CN(Cc1ccc(OC(F)F)cc1)C(=O)C1CCN(S(=O)(=O)c2ccc3c(c2)OCCO3)CC1 | -11.1% | 8.3% | x
0.9 | COc1ccc(S(=O)(=O)N2CCC(C(=O)NCC3CCCO3)CC2)cc1OC (configuration not stated) | -2.7% | -1.7% | -0.4%
x | O=C(NCCNC(=O)c1cccc(O)c1)c1cccc(O)c1 | 1.3% | 2.0% | 2.7%
x | COc1ccc(C(=O)/C=C/Nc2ccc(S(=O)(=O)Nc3cc(OC)nc(OC)n3)cc2)c(OC)c1 | u | u | 1.9%
-3.3 | COc1ccc(C2CC(C(F)(F)F)n3ncc(C(=O)NCc4cccnc4)c3N2)cc1OC (configuration not stated) | 0.3% | -19.7% | -29.1%
x | CCOc1ccc(CNn2cnnc2)cc1 | -1.9% | -0.7% | -0.7%
-8.3 | CS(=O)(=O)N1CCc2cc(-c3csc(NC(=O)Cc4cccs4)n3)ccc21 | 1.4% | 4.4% | u
-9.7 | O=S(=O)(c1ccc(N2CCCC2)nc1)N1CCOCC1 | -1.3% | 3.1% | -0.4%
-0.9 | COc1ccc(CCNC(=O)CC2Nc3cc(C)c(C)cc3NC2=O)cc1OC (configuration not stated) | u | u | -7.5%
0.2 | Oc1c(C=Nc2cccc3cccnc23)sc2ccccc12 | x | x | 12.4%
1.4 | COc1ccc(C(c2c(NC(C)=O)sc3c2CCCC3)N2CCN(CCO)CC2)cc1OC (configuration not stated) | 0.5% | u | -5.6%
-2.0 | CCc1cccc(C)c1NC(=O)CN1C(=O)NC(Cc2ccccc2)C1=O (configuration not stated) | -2.5% | -6.7% | 6.9%
x | O=C(NCC(=O)N(c1ccc(Cl)cc1)C(C(=O)NC1CCCC1)c1cccnc1)c1ccco1 (configuration not stated) | 3.0% | 11.4% | 0.0%
x | O=C(O)c1ccc(S(=O)(=O)Nc2ccc3c(c2)OCCO3)cc1 | -1.0% | -4.9% | -6.3%
-1.3 | FC(F)(F)c1ccc2c(c1)N1CCCC1CN2 (configuration not stated) | u | -24.0% | 4.3%
x | CN(C)S(=O)(=O)c1cccc(NC(=O)CC23CC4CC(CC(C4)C2)C3)c1 | -6.5% | 13.5% | -5.9%
-4.1 | COc1cccc(CN2CCN(Cc3cccc4nonc34)CC2CCO)c1 (configuration not stated) | 5.9% | 5.6% | -0.7%
-1.4 | O=C(NCc1cn2ccsc2n1)c1cccs1 | -4.5% | -25.5% | -15.9%
x | COc1cc(/C=N/Nc2ccccc2)ccc1O | -0.2% | -17.2% | -6.3%
3.9 | CC(=O)NNC(=S)Nc1cccc(F)c1 | -1.6% | 13.2% | -0.6%
5.4 | COCCNC(=S)N1CCC(Cc2ccccc2)CC1 | 3.1% | -12.4% | -7.0%
10.3 | COC(=O)c1[nH]c2cc(OC)ccc2c1NC(=O)CN1CCC(C(N)=O)(N2CCCCC2)CC1 | -0.2% | -7.8% | -9.5%
x | O=S1(=O)N=C(N(CCO)/N=C/c2ccc(Br)cc2)c2ccccc21 | 3.6% | 1.0% | -1.6%
-3.0 | COc1cc(N)c(Cl)cc1Cl | 0.6% | 0.8% | 1.3%

# Screens from PubChem BioAssay.
